Screening data from PubChem BioAssay.
Cruzain inh Det = qHTS Assay for Promiscuous and Specific Inhibitors of Cruzain (with detergent). Cruzipain (Trypanosoma cruzi), P25779. purified cruzain, Z-FR-AMC fluorescence, 0.01% Triton. Potency, µM, without a hit: max response, negative = inhibition, usual class: inhibitors. 200,000 compounds, 0.43% hits;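 further: plate controls were neutral wells for no effect and buffer without enzyme for full effect; nearly all actives have a fitted effect of over 40% in size; top concentration of the series not given in the record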
Target sequence (P25779 123-467 limits assumed): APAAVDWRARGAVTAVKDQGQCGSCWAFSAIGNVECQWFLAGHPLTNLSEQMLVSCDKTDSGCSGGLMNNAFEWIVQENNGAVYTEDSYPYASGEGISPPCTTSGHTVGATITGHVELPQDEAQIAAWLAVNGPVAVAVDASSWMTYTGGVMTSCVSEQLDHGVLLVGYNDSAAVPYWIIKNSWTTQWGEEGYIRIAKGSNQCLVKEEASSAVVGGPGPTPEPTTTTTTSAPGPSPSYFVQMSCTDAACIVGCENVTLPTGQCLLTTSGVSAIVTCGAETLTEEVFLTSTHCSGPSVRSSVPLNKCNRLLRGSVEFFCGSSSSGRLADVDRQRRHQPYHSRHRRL
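15 min RT preincubation of 1.5 nM cruzain with compound, then 2 uM Z-FR-AMC added; kinetic AMC fluorescence, 60 s delta. Triton X-100 0.01%, pH 5.5.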
Cruzain inh noDet = qHTS Assay for Promiscuous and Specific Inhibitors of Cruzain (without detergent); Cruzipain (Trypanosoma cruzi), P25779; purified cruzain, Z-FR-AMC fluorescence, no detergent; Potency, µM, for inactives: max response, negative = inhibition, hits mostly inhibitors; 200,000 compounds, 2.3% hits; AID 1476, 2009;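 further: plate controls were enzyme without inhibitor for no effect and buffer without enzyme for full effect; nearly all actives have a fitted effect of over 40% in size; top concentration of the series not given in the record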
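Detergent-free condition (0.00005% Triton X-100) in acetate buffer pH 5.5 with DTT. 1.5 nM enzyme and compound were pre-mixed 15 min, then 2 uM Z-FR-AMC substrate added; reaction progress from fluorescence change between first and third reads (60 s).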
2A StopGo = High Throughput Screening for Foot and Mouth Disease Virus Antivirals; 410,000 compounds, 1.2% hits; Potency, µM (titrated, usually from 57.9 µM), inactives show at the top dose signal change, negative = less light; human cells with a luciferase reporter of 2A StopGo recoding; control for the full effect not named in the record; active = well fitted falling curve with a large enough effect; inconclusive = small, poorly fitted or top-dose-only effect; inactive = no such curve, though single readings can be large or run the other way; tested in HEK293T cells; further: nearly all actives have a fitted effect of over 45% in size; luciferase light after 4 h
An asterisk follows results filed as active; ? = inconclusive; & = joins results of further samples; [ ] = another dose, or the depositor's remark. Unless noted, the call rests on the fitted dose curve; in most records, active means well fitted curve in the direction sought with a large enough effect; inconclusive means small, poorly fitted or top-dose-only effect, or another doubt; inactive means no such curve, though single readings can be large; an effect the other way counts as inactive or inconclusive. Unless noted, on the % scale 0 is the no-effect control and ±100 the full control effect; potency means the concentration at half of the fitted maximal effect. Some of the compounds tested, so the mix of outcomes need not match the whole.

SMILES	Cruzain inh Det	Cruzain inh noDet	2A StopGo
CN1CCN(c2ncc3ncc(=O)n(CCC#N)c3n2)CC1	-6.6%	-18%	-12%
COCCNc1ccnc(-c2cccc(NS(C)(=O)=O)c2)n1	-14%	-4%	8%
c1ccc(CNc2ncnc3ccc(-c4cccnc4)cc23)cc1	-3.7%	3%	?
O=c1c(-c2ccc(F)c(F)c2)nc2cncnc2n1Cc1ccc(F)cc1	-5.0%	-4%	-24%
O=C(c1csnn1)N1CCC2(CCN(Cc3nccs3)CC2)CC1	2.8%	-3%	-7%
COc1ccc(-c2nc3cnc(N4CCOCC4)nc3n(Cc3cccs3)c2=O)cc1	7.7%	10%	-10%
COc1ccc(-c2nc3cnc(Oc4ccccc4)nc3n(C3CC3)c2=O)cc1	-0.6%	17%	3%
CS(=O)(=O)Nc1cccc(-c2nc(Nc3ccncc3)c3ccccc3n2)c1	-1.1%	4%	-16%
CCCCC/C=C\C/C=C\CCCCCCCCCC(=O)O	1.9%	-8%	-17%[6.7 µM]
CCNc1ncc2nc(CCc3ccccc3)c(=O)n(C[C@H]3CCCO3)c2n1	-4.2%	14%	9%
c1cc2c(cc1C1CCCCC1)c1c3n2CCN[C@H]3CCC1	-1.3%	20%	-15%
O=c1c(CCc2ccccc2)nc2cnc(N3CCNCC3)nc2n1C1CC1	-1.7%	-11%	-8%
COc1ccc2[nH]cc(CCNc3ccnc(-c4ccccc4Cl)n3)c2c1	-7.9%	14%	?
O=C(c1ccncc1)N1CCC[C@@]2(CCN(c3cccc(-c4ccccc4)c3)C2)C1	-6.1%	?	-22%
COc1cccc(Cn2c(=O)c(-c3cccs3)nc3cnc(N4CCOCC4)nc32)c1	2.9%	-7%	-24%
O=C1C=CC(=O)C2=C1C1c3ccccc3C2c2ccccc21	3.0%	-2%	-17%
CN(C)C(=O)c1ccc(-c2nc(-n3ccnc3)c3ccccc3n2)cc1	1.1%	4%	7%
Cn1cc(-c2nc3cnc(OCc4ccccc4)nc3n(CCC#N)c2=O)c2ccccc21	0.7%	2%	-10%
COc1ccc(-c2cc(=O)c3c(O)c(OC)c(O[C@@H]4OC(COC5OC(C)C(O)C(O)[C@@H]5O)C(O)C(O)C4O)cc3o2)cc1 (stereo partly drawn)	-0.1%	2%	-8%
c1ccc2c(-n3ccnc3)nc(-c3ccoc3)nc2c1	-5.1%	-2%	0%

Single records, from the list above:
COc1ccc(-c2nc3cnc(Oc4ccccc4)nc3n(C3CC3)c2=O)cc1 is listed as Cruzain inh Det: -0.6%; Cruzain inh noDet: 17%; 2A StopGo: 3%
O=C(c1csnn1)N1CCC2(CCN(Cc3nccs3)CC2)CC1 is listed as Cruzain inh Det: 2.8%; Cruzain inh noDet: -3%; 2A StopGo: -7%

5 entries from above, with two lines to a compound.
Each structure is followed by: Cruzain inh Det, Cruzain inh noDet, 2A StopGo
- c1cc2c(cc1C1CCCCC1)c1c3n2CCN[C@H]3CCC1
    -1.3%, 20%, -15%
- O=c1c(CCc2ccccc2)nc2cnc(N3CCNCC3)nc2n1C1CC1
    -1.7%, -11%, -8%
- COc1ccc2[nH]cc(CCNc3ccnc(-c4ccccc4Cl)n3)c2c1
    -7.9%, 14%, ?
- O=C(c1ccncc1)N1CCC[C@@]2(CCN(c3cccc(-c4ccccc4)c3)C2)C1
    -6.1%, ?, -22%
- COc1cccc(Cn2c(=O)c(-c3cccs3)nc3cnc(N4CCOCC4)nc32)c1
    2.9%, -7%, -24%

Later entries:
SMILES	Cruzain inh Det	Cruzain inh noDet	2A StopGo
COc1cccc(Nc2ncc3nc(-c4ccc(Cl)cc4)c(=O)n(C4CC4)c3n2)c1	-0.1%	-8%	-17%
N[C@H](C(=O)O)c1nn[nH]n1	1.4%	-8%	-21%
C=C(NC(=O)C(=C)NC(=O)c1csc(C2=NC3c4csc(n4)C4NC(=O)c5csc(n5)C(C(C)(O)C(C)O)NC(=O)C5CSC(=N5)C(=CC)NC(=O)C(C(C)O)NC(=O)c5csc(n5)C3(CC2)NC(=O)C(C)NC(=O)C(=C)NC(=O)C(C)NC(=O)C(C(C)CC)NC2C=Cc3c(C(C)O)cc(nc3C2O)C(=O)OC4C)n1)C(N)=O (stereo not drawn)	0.1%	?	6%
COc1ccc(NC(=O)N2CC3(CCN(C(=O)c4ccc(OC)cc4)CC3)C2)cc1	-1.2%	2%	-2%
O=C(c1ccco1)N1CCC2(CC1)CN(c1ncccn1)C2	2.2%	-11%	-11%
CCCN1C[C@H](C)N([C@H](c2ccc(C(=O)N(CC)CC)cc2)c2cccc(OC)c2)C[C@H]1C	-2.2%	0%	-16%&-7%
Cc1ccccc1-c1nc(NCCN2CCOCC2)c2ccccc2n1	0.2%	-3%	-6%
O[C@@H]1[C@H](O)[C@H]2[C@@H](O)CCN2C[C@@H]1O	0.4%	-6%	-15%
COc1cccc(Nc2ncc3nc(-c4ccc(Cl)cc4)c(=O)n(CCC#N)c3n2)c1	1.3%	1%	-9%
c1ccc2c(N3CCNCC3)nc(-c3ccc4c(c3)OCO4)nc2c1	-0.1%	-6%	13%

Shown field by field: entries from further up
> O=C(c1ccco1)N1CCC2(CC1)CN(c1ncccn1)C2
  Cruzain inh Det: 2.2% | Cruzain inh noDet: -11% | 2A StopGo: -11%
> CCCN1C[C@H](C)N([C@H](c2ccc(C(=O)N(CC)CC)cc2)c2cccc(OC)c2)C[C@H]1C
  Cruzain inh Det: -2.2% | Cruzain inh noDet: 0% | 2A StopGo: -16%&-7%
> Cc1ccccc1-c1nc(NCCN2CCOCC2)c2ccccc2n1
  Cruzain inh Det: 0.2% | Cruzain inh noDet: -3% | 2A StopGo: -6%
> O[C@@H]1[C@H](O)[C@H]2[C@@H](O)CCN2C[C@@H]1O
  Cruzain inh Det: 0.4% | Cruzain inh noDet: -6% | 2A StopGo: -15%

Continued:
SMILES	Cruzain inh Det	Cruzain inh noDet	2A StopGo
O=c1c(-c2cc(F)cc(F)c2)nc2cncnc2n1-c1ccccc1	-1.6%	-13%	-10%
Cn1cc(-c2nc3cncnc3n(-c3ccccc3)c2=O)c2ccccc21	-5.1%	?	0%
CS(=O)(=O)Nc1cccc(-c2ccc3ncnc(NCc4cccnc4)c3c2)c1	-1.9%	6%	-4%
O=C(c1ccncc1)N1CCC2(CCCN(c3cccc(-c4ccccc4)c3)C2)CC1	-5.3%	?	-8%
O=C(c1csnn1)N1CCC2(CCCN(c3ccncc3)C2)CC1	-13%	-14%	-4%
O=c1c(CCc2ccccc2)nc2cncnc2n1Cc1ccc(F)cc1	2.4%	-6%	-5%
CC(=O)N1CCC[C@@]2(CCN(C(c3ccccc3)c3ccccc3)C2)C1	0.6%	-5%	-10%
COc1ccc(CNc2ncnc3ccc(-c4ccc5c(c4)OCO5)cc23)c(OC)c1	2.2%	?	-9%
CS(=O)(=O)N1CCC[C@@]2(CCN(Cc3ccccc3)C2)C1	2.4%	-7%	-19%
O=S(=O)(c1ccccc1)N1CCC[C@@]2(CCN(Cc3nccs3)C2)C1	-1.6%	-13%	?
Cc1cnc(CNc2ccnc(-c3ccccc3Cl)n2)cn1	-2.3%	-1%	0%
CCC(C)C(=O)OC1C2CC3=C4CC(=O)OC(c5ccoc5)[C@]4(C)CCC3[C@@](C)(C2=O)C(CC(=O)OC)C1(C)C (stereo partly drawn)	-5.5%	?	-3%
Cc1ccccc1-c1cc(-n2ccnc2)ncn1	3.7%	6%	1%
O=C(CCCc1ccc(-c2ccccc2F)cc1)Nc1ccc(O)cc1	-2.8%	?	-29%
Cn1cccc1C(=O)N1CCC2(CCCN(c3ncccn3)C2)CC1	0.2%	0%	-11%
O=C(c1cccc(F)c1)N1CCC2(CC1)CN(Cc1ccccc1)C2	1.1%	1%	-3%
COCC(=O)N1CCC[C@@]2(CCN(c3ccncc3)C2)C1	5.6%	-3%	0%
CCOC(=O)C1C(C=C(C)C)C1(C)C (stereo not drawn)	5.6%	-4%	-2%
O=C(c1csnn1)N1CCC2(CCCN(c3ccc(-c4ccccc4)cc3)C2)CC1	0.2%	11%	-11%
Nc1nc2c([nH]c(=O)n2C2OC(CO)C(O)C2O)c(=O)[nH]1 (stereo not drawn)	3.4%	-10%	5%
CC(C)SC(=N)N	-1.7%	-1%	-1%
C=C1C(=O)C23C(O)C1CCC2[C@]12COC3(O)C(O)C1C(C)(C)CC[C@H]2O (stereo partly drawn)	3.4%	13%	28µM*
O=C(c1cccc(F)c1)N1CCC2(CCN(Cc3ccncc3)CC2)CC1	-0.9%	0%	3%
CC(=O)Oc1cc2c(c(C)c1OC(C)=O)CC=C1[C@]3(C)CC[C@]4(C)CC[C@@](C)(C(=O)O)CC4[C@]3(C)CC[C@]12C (stereo partly drawn)	0.6%	10%	35µM*
COc1ccc(Oc2ncc3ncc(=O)n(Cc4cccc(OC)c4)c3n2)cc1	-1.8%	?	-14%
N#Cc1cccc(NC(=O)N2CCC3(CC2)CCN(C(=O)c2cnccn2)CC3)c1	-4.3%	12%	-1%
O=C(c1csnn1)N1CCC2(CCCN(Cc3cc(C(F)(F)F)cc(C(F)(F)F)c3)C2)CC1	6.4%	-5%	0%
Nc1nc(=O)n(C2OC(CO)C(O)C2O)cc1Cl (stereo not drawn)	-0.6%	-9%	-18%
c1ccc(N=Nc2ccccc2)cc1	2.0%&-0.4%	-7%&-3%	13%
NC1(C(=O)O)C[C@@H](C(=O)O)[C@H](C(=O)O)C1	-2.2%&-2.7%	1%&9%	-16%&-16%&8%
COc1ccc(Oc2ncc3nc(-c4ccc(F)cc4)c(=O)n(CCC#N)c3n2)cc1	-4.4%	2%	-9%
CC(=O)OCCC(C)CCC=C(C)C (stereo not drawn)	-0.4%	-8%	-13%
CCC1CN2CCC1CC2C(O)c1ccnc2ccc(OC)cc12 (stereo not drawn)	-2.1%	-13%	-6%
COc1cccc(NC(=O)/C=C\c2ccc(Cl)cc2)c1	-8.8%	13%	4%
